# Screening data from PubChem BioAssay.
# Tgondii IFNg: T. gondii growth inhibition under IFN-gamma; 69,000 compounds, 3.8% hits; AID 1259416; activity change, negative = inhibition, %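 (about 20 µM by stock and volumes)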; Toxoplasma gondii growth in IFN-gamma-treated host cells; hits give low values; reference of the scale not given here;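 active = below -70%; inconclusive = fit judged invalid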;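 note: host cells are HeLa cells infected with Toxoplasma gondii; parasite growth read as luciferase light; one replicate is shown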
# Active calls of the source: *; i = inactive; ? = inconclusive; & = joins results of further samples. Not all compounds are listed (hit frequency here may not be typical).
# The opening two entries (preview)
SMILES,Tgondii IFNg
CN(Cc1noc(C2CCCC2)n1)C(=O)c1cnn2c1CCCC2,-3
COCCn1c2c(ccc1=O)CCN(C(=O)C1CCOC1)CC2 (stereo unspecified),10

# The whole of this part, from the start:
SMILES,Tgondii IFNg
CN(Cc1noc(C2CCCC2)n1)C(=O)c1cnn2c1CCCC2,-3
COCCn1c2c(ccc1=O)CCN(C(=O)C1CCOC1)CC2 (stereo unspecified),10
Cc1cc(NC(=O)COC(=O)C(C)Oc2ccc(Cl)cc2Cl)no1 (stereo unspecified),-28
CCOCC1CN(Cc2ccc(C)s2)Cc2nn(CC3CC3)cc21 (stereo unspecified),-8
Cc1oc(-c2cccc(Cl)c2)nc1Cn1ccn2nc(-c3ccccc3)cc2c1=O,-1
O=C(NCc1cnn2cccnc12)c1ccccc1C1CCNC1 (stereo unspecified),12
COc1ccccc1-n1cc(C2CC(=O)Nc3[nH]ncc32)cn1 (stereo unspecified),-8
CNc1nc(-c2ccc(S(C)(=O)=O)cc2)nc2c1CCC2,-2
Cc1nc(-c2ccccc2)sc1C(=O)Nc1ccc(-n2c(C)nc3ccccc3c2=O)cc1,2
Cc1cccc(NC(=O)C(=O)NCCc2csc(-c3ccc(F)cc3)n2)c1C,-18
CCOc1cc(C(c2c(C)[nH][nH]c2=O)c2c(C)[nH][nH]c2=O)ccc1O,-6
CC1=CC(C)(C)N(CC(=O)c2ccccc2)c2ccc(C)cc21,48
COCc1cn(CC[C@@H]2CC[C@H](NC(=O)Nc3c(C)noc3C)[C@@H](CO)O2)nn1,-46
CCOc1ccccc1NC(=O)Cn1ncc2c(N3CCOCC3)ncnc21,110
CC(=O)N[C@@H]1C[C@H](CC(C)C)O[C@H](c2coc3ccc(Cl)cc3c2=O)C1,-15
CCn1c(CC2CCN(c3nnnn3-c3ccccc3)CC2)nn(C)c1=O,-4
CN(Cc1cnn(-c2ccc(F)cc2)c1)Cc1cnc(N(C)C)s1,4
CN(CC1COCCO1)c1nccc(CCC(F)(F)F)n1 (stereo unspecified),-3
COc1cccc(-c2ccc(NC(=O)C(C)C)cc2)c1OC,21
Cc1cccc(C2=NC3(CCN(CC(=O)Nc4ccc(C(C)C)cc4)CC3)NC2=O)c1,-47
CCSc1nnc(CCNC(=O)N2CCCCC2)n1C,28
CC(C)Oc1ccc(N2CC(C(=O)NC3=NCCS3)CC2=O)cc1 (stereo unspecified),-64
Cc1cnn(Cc2nc(-c3ccc(NC(=O)c4ccc(Cl)cc4)cc3)oc2C)c1,-87*
O=C(NC(CO)C(=O)O)c1cncc(Br)c1 (stereo unspecified),7
O=C(NCC1CC1)[C@@]12CCCN(c3ncccn3)[C@H]1CN(c1ncccn1)C2,8
O=C(c1ccc2c3c(cccc13)CC2)C1CCCN(C(=O)c2cc3ccccc3oc2=O)C1 (stereo unspecified),18
Cc1nc2ccc(S(=O)(=O)N3CCc4c(nc[nH]c4=O)C3)cc2s1,43
CCc1nc2cc(NC(=O)COc3ccc4nsnc4c3)ccc2n1C,19
CCN(CCOc1ccccc1F)C(=O)c1ccoc1C,-34
O=C(CCN1CCOCC1)c1ccc2c(c1)OCCO2,-53
CC(Cn1cc(Cl)cn1)C(=O)Nc1ccc(N2CCOCC2)c(F)c1 (stereo unspecified),69
CC1CCCCN1CCNc1nc(-c2ccc(Cl)cc2)nc2ccccc12 (stereo unspecified),-46
COCC(=O)Nc1ccc2c(c1)OC[C@H](C)N(C)C[C@@H](C)[C@H](OC)CN(C)C2=O,-31
COc1ccc(CC(=O)Nc2ccc(-c3nc(-c4ccc(C)cc4C)co3)cc2)cc1,1
COc1ccc(C2=NN(C(C)=O)C(c3ccc(Cl)cc3)C2)cc1 (stereo unspecified),321
CN1C(=O)c2cc(NC(=O)NCc3ccccc3)ccc2OC[C@H]2O[C@H](CC(=O)NCC3CCCCC3)CC[C@H]21,-47
Cc1cc(NC(=O)CCC2CCCCC2)n(-c2ncnc3c2cnn3-c2ccc(F)cc2)n1,-5
O=C(NCc1c(Cl)cccc1Oc1ccccc1)c1ccc2c(c1)OCC2,-35
COCc1ccc(-c2cc(=O)n3[nH]cc(C(=O)Nc4ccc(C)cc4)c3n2)cc1,-42
COc1ccc2c3c(n(C)c2c1)[C@H](CO)N(S(=O)(=O)c1ccc(C)cc1)CC31CCN(Cc2cccnc2)CC1,-32
Oc1cccc(Nc2ccc(Nc3cccc(O)c3)nn2)c1,17&47
O=C(NCc1ccc2c(c1)OCCCO2)C1CCCN(Cc2ccco2)C1 (stereo unspecified),-3
Cc1cc(C)c(C(=O)N2CCOC(CCCc3ccccc3)C2)c(=O)[nH]1 (stereo unspecified),9
O=C(Nc1cccnn1)N1CCC(=Cc2cccc(Oc3ccc(C(F)(F)F)cn3)c2)CC1,?
Cc1ccc(Sc2c(-c3ccccc3)nc3ccccn23)cc1,-32
CNC[C@H]1OCc2cnnn2CCCC(=O)N([C@H](C)CO)C[C@H]1C,323
C=Cn1cc(CN2CCC(O)(c3cnc(OCC)nc3OCC)CC2)c(C)n1,2
O=C(Oc1cccc2cccnc12)c1cc(Cl)ccc1Cl,-6
C[C@@H]1CN([C@@H](C)CO)C(=O)CCCn2nncc2CO[C@H]1CN(C)CC1CCCCC1,242
Clc1[nH]nc2c(CN(CCCn3ccnc3)CC3CC=CCC3)cncc12 (stereo unspecified),19
Cc1nc(C)c2c(n1)CCN(C1CCOCC1)CC2,60
CN(C)C(=O)c1cccc(-c2ccccc2[C@@H]2[C@H](C#N)N(C(=O)C3CCCCC3)[C@H]2CO)c1,-52
Cc1onc(-c2ccccc2)c1C(=O)N1CCCN2C(=O)c3ccccc3C21 (stereo unspecified),-10
COc1ccc(NC(=O)N2CCCCC2CCN2CCOCC2)c(C)c1 (stereo unspecified),-3
O=S(=O)(c1cccc(C(F)(F)F)c1)N1CC(c2ccncc2)C1,-10
CC(=O)N1CC2(C)CN(C(C)=O)CC(C)(C1)C2,-2
COCC#Cc1ccc([C@H]2[C@H](CO)N3CCCCN(C(=O)NC4CCCC4)C[C@@H]23)cc1,-33
COc1ccc(Cl)cc1NC(=O)NCC(c1cccnc1)c1cn(C)c2ccccc12 (stereo unspecified),146
Cc1nn(C)c(C)c1C(=O)NCc1cccnc1N(C)CCc1ccccn1,-9
CSc1nnc(-c2ccc(S(=O)(=O)Oc3cccc(C(F)(F)F)c3)s2)n1C,4
# Carrying on.
SMILES,Tgondii IFNg
COc1ccc(NC(=O)N2CCCCN3[C@@H](CO)[C@@H](c4ccc(-c5ccccc5F)cc4)[C@@H]3C2)cc1,-44
CC(=O)Nc1ccc(C)c(NC(=S)Nc2ccc(Cl)c(Cl)c2)c1,23
O=C(CCC1Nc2c3ccccc3nc(=S)n2C1=O)NCc1ccccc1 (stereo unspecified),8
COCCNC(=O)c1ccc(-c2nc(CN3CCN(c4ccccc4)CC3)c(C)o2)cc1,-4
COc1cccc(COC2CN(CC(C)C)C(=O)CN(C(=O)c3cccc(Cn4cccn4)c3)C2)c1 (stereo unspecified),-2
CCc1c(C)nn(CCNc2nc(CCN)nc3ccccc23)c1C,16
CCn1c(C2CCCN(C(=O)c3ccc4c(c3)nnn4C)C2)nn(C)c1=O (stereo unspecified),3
Cc1nccn1CCCNC(=O)c1cc2nc3c(c(C(F)(F)F)n2n1)CCCC3,5
O=C(NCc1noc(C2CCCO2)n1)c1cccc2ccnn12 (stereo unspecified),6
CC(CN(C)C(=O)c1c(O)cccc1O)N1CCOCC1 (stereo unspecified),4
Cn1c(CNC(=O)COc2ccccc2)cc2cc(Cl)ccc21,58
CC=Cc1ccc2n(c1=O)C[C@H]1[C@H](CO)[C@@H](C(=O)N[C@H](C)c3ccccc3)[C@@H]2N1Cc1cncnc1 (mixture of isomers),2
COc1cccc(CN2CC3(CCN(C)CC3)c3c([nH]c4cc(OC)ccc34)[C@@H]2CO)c1,3
O=C(Cc1cccnc1)N1CCCC2(CCN(Cc3ccco3)C2)C1 (stereo unspecified),-10
COc1cc2ncnc(Nc3cccc(Br)c3)c2cc1OC,-79*
CN1CC[C@]2(CCC[C@@H](CNC(=O)c3cccn3C)O2)C1,58
O=C(Nc1ccccc1)c1cccc2c1-c1ccccc1C2=O,0
Cn1ccnc1-c1ccc(N2CCCC(OCc3cccnc3)C2)nn1 (stereo unspecified),-19
Cn1cc(CN2C[C@H]3COC[C@@]3(COc3ccc(C#N)cn3)C2)cn1,3
C[C@H]1CN([C@@H](C)CO)C(=O)c2cc(/C=C/c3ccccc3)cnc2O[C@@H]1CN(C)S(=O)(=O)c1ccccc1F,21

# Already shown: an excerpt of the list.
SMILES,Tgondii IFNg
CCc1c(C)nn(CCNc2nc(CCN)nc3ccccc23)c1C,16
CCn1c(C2CCCN(C(=O)c3ccc4c(c3)nnn4C)C2)nn(C)c1=O (stereo unspecified),3
Cc1nccn1CCCNC(=O)c1cc2nc3c(c(C(F)(F)F)n2n1)CCCC3,5
O=C(NCc1noc(C2CCCO2)n1)c1cccc2ccnn12 (stereo unspecified),6
CC(CN(C)C(=O)c1c(O)cccc1O)N1CCOCC1 (stereo unspecified),4
Cn1c(CNC(=O)COc2ccccc2)cc2cc(Cl)ccc21,58
CC=Cc1ccc2n(c1=O)C[C@H]1[C@H](CO)[C@@H](C(=O)N[C@H](C)c3ccccc3)[C@@H]2N1Cc1cncnc1 (mixture of isomers),2
COc1cccc(CN2CC3(CCN(C)CC3)c3c([nH]c4cc(OC)ccc34)[C@@H]2CO)c1,3
O=C(Cc1cccnc1)N1CCCC2(CCN(Cc3ccco3)C2)C1 (stereo unspecified),-10
COc1cc2ncnc(Nc3cccc(Br)c3)c2cc1OC,-79*
CN1CC[C@]2(CCC[C@@H](CNC(=O)c3cccn3C)O2)C1,58
O=C(Nc1ccccc1)c1cccc2c1-c1ccccc1C2=O,0
Cn1ccnc1-c1ccc(N2CCCC(OCc3cccnc3)C2)nn1 (stereo unspecified),-19
Cn1cc(CN2C[C@H]3COC[C@@]3(COc3ccc(C#N)cn3)C2)cn1,3
C[C@H]1CN([C@@H](C)CO)C(=O)c2cc(/C=C/c3ccccc3)cnc2O[C@@H]1CN(C)S(=O)(=O)c1ccccc1F,21

# Next results.
SMILES,Tgondii IFNg
CN1CC2(CCN(C(=O)CCc3nc4ccccc4[nH]3)C2)OC1=O (stereo unspecified),0
COCCN1CCC(c2cc3c(ncn3C(C)C)c(N3CCCC3)n2)CC1,2
Cc1cc(C)cc(NC(=O)Cc2ccc(OC(C)(C)C(=O)O)cc2)c1,44
CO[C@@H]1CN(C)C(=O)c2ccc(NC(=O)Nc3ccccc3Cl)cc2OC[C@H](C)NC[C@@H]1C,3
COc1cccc(C(=O)NCCC(=O)N2[C@@H]3CC[C@H]2CN(C)C(=O)C3)c1,-46
CCCCCCCCCCCCCCCC(=O)NCCO,21
CC(=O)Oc1ccc(C(=O)O)cc1OC(C)=O,11
COc1ccccc1CN1CCC2(CC1)CC(NS(=O)(=O)C1CC1)CCO2 (stereo unspecified),37
CC(C)c1cc(NC(=O)c2ccc(CN3CC[C@H](O)C3)cc2)n(C)n1,0
O=c1cc(Cc2csc(-c3ccncc3)n2)nc2cc(-c3ccc(F)cc3)[nH]n12,29
Cc1ccc(S(=O)(=O)N2CC(=O)Nc3ccccc32)cc1,38
COCCN1C(=O)CCc2cc(NS(=O)(=O)c3cc(C)c(C)cc3C)ccc21,-30
Cc1nsc(NC(=O)NC2(CN3CCOCC3)CCCCC2)n1,4
O=C(NC1CCc2cccnc21)c1cn[nH]n1 (stereo unspecified),0
CCOc1ccc(OCCSc2nnnn2C2CCCCC2)cc1,9
Cc1c(Cn2c(C)nc3c(C(=O)O)cc(N4CCOCC4)cc32)cccc1C(F)(F)F,12
Cc1ccc(CNC(=O)Cn2nc(C)c3sc(-c4ccccc4)nc3c2=O)cc1C,27
CC1CCCN(C(=O)CCN2CCC(c3cccc(O)c3)CC2)C1 (stereo unspecified),-7
O=C(NC1CCN(C(=O)CNCc2ccc3c(c2)OCO3)CC1)c1ccccc1F,7
COc1ccc(O)c(CN2CCC3(CC2)C(=O)N(C2Cc4ccccc4C2)C(=O)N3CC(C)C)c1,24
CCn1c(SCC(=O)O)nnc1-c1ccc(S(=O)(=O)N2CCCC2)cc1,-1
Fc1ccc(-c2cccc(-n3cnnc3)c2)c(Cl)c1,-20
O=C(c1ccccc1)c1cc(Cl)ccc1N/C=C/c1nnnn1-c1ccc(Cl)cc1,-2
Cc1nc(C(C)N(C)C(=O)c2ncn[nH]2)c(C)s1 (stereo unspecified),11
COc1ccc(NC(=O)Cn2c(=O)ccc3cc(S(=O)(=O)N4CCCC4)ccc32)cc1,2
Cc1ccccc1-c1ncc(CN2CCN(CC3CCCO3)CC2)s1 (stereo unspecified),-3
Cc1ccc2c(c1)NC1(CCN(C(=O)Nc3ccccc3C(F)(F)F)CC1)c1cccn1-2,166
COCC1CC2(CCN(C(=O)N3CCCC3)CC2)CN1CC1CC1 (stereo unspecified),3
CN(C)C(=O)c1ccc(-c2ccccc2[C@H]2[C@@H](CO)N(C(=O)C3CC3)[C@H]2C#N)cc1,-49
COc1cccc(S(=O)(=O)N2CC[C@@H]3[C@H](CO)Nc4ccc(C#Cc5cccnc5)cc4[C@@H]32)c1,10
COc1cccc(-c2nc(CN(c3ccc(C)cc3)S(=O)(=O)c3cccs3)c(C)o2)c1OC,14
Cc1cc2nc3c(nc2cc1C)-c1ccccc1C3=O,i
CNC(=O)c1ccc(-c2ccc(CNC(=O)COC)cc2)nc1C,-74*
O=C(O)c1ccccc1CN1CCCN(c2nc3ccccc3s2)CC1,-1
CCOC(=O)c1cccnc1N1CCC(O)(c2ccc(C)cn2)CC1,11
CCc1cc(Cn2ccnc2-c2ccccc2SC)on1,1
CCC(C)NC(=O)N1Cc2[nH]nc(COCCO)c2C1 (stereo unspecified),56
C[C@@H]1CN([C@@H](C)CO)S(=O)(=O)c2ccc(C#CC(C)(C)O)cc2O[C@@H]1CN(C)Cc1ccc(F)cc1,?
Cc1cc(C)c2cc(C(=O)Nc3ccc(OC(F)(F)F)cc3)[nH]c2c1,39
CN1CCC(CNC(=O)c2ccc3c4c([nH]c3c2)CCCC4)C1 (stereo unspecified),0
O=C(c1c(O)cccc1O)N1CC(Oc2ccccc2F)C1,-4
Cc1ccc(NC(=O)C(=O)NCCc2sc(-c3cccc(F)c3)nc2C)cc1C,-33
